High-throughput results (PubChem BioAssay)
gsp antag: antagonizes gsp, the McCune-Albright syndrome mutation. gsp-mutant cells, cAMP HTRF, 30 min; control for the full effect not named in the record. Potency, µM (series often up to 76.9 µM), for the others: at the top dose activity change, negative = inhibition, usual class: inhibitors. hit rate 0.4% among 340,000; active = falling curve of any shape with a large fitted effect; inconclusive = falling curve, mostly with a smaller effect; inactive = flat or rising curve; cell line not stated here;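 note: intracellular cAMP measured with PDE inhibitor Ro 20-1724 present during compound exposure; potency is the fitted concentration of half-maximal effect; % is set by controls: 0 for no effect and ±100 for the full control effect; nearly all actives have a fitted effect of over 65% in size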
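Cells in G418 medium, seeded 16-24 h, 37C; buffer exchange to DPBS + 1 mM CaCl2, 0.5 mM MgCl2, 0.05% BSA; cpds in DMSO + […] (300 uM stock), 30 min 37C; HTRF cAMP detection.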
gsp agonist: gsp mutant agonism | gsp mutant cells, cAMP HTRF, 30 min; control for the full effect not named in the record | Potency, µM (doses to about 76.9 µM), for the others: top-dose activation (cAMP increase), hits mostly activators | hit rate 0.13% among 340,000; active = well fitted activation curve with a large enough effect; inconclusive = small, poorly fitted or top-dose-only effect, or another doubt; inactive = no such curve, though single readings can be large or run the other way; cell line not stated here;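 note: phosphodiesterase inhibitor Ro 20-1724 added with compounds to block cAMP breakdown; potency is the fitted concentration of half-maximal effect; nearly all actives have a fitted effect of over 60% in size; about a fifth of the inactives were tested at one dose only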
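Cells stably selected in G418 were plated at 2000/well, grown 16-24 hr, then given compounds in DMSO with the PDE inhibitor […] (300 uM solution added) for 30 min at 37C; cAMP was read by HTRF.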
ClpP mod: qHTS Assay for Activators of ClpP; hit rate 1.9% among 340,000; AID 651965, 2013; ATP-dependent Clp protease proteolytic subunit (Bacillus subtilis (strain 168)), P80244; purified B. subtilis ClpP, FRET peptide cleavage, 20 min; Potency, µM (highest dose often 57.5 µM), for inactives: top-dose activity change, negative = active; active = well fitted falling curve with a large enough effect; inconclusive = small, poorly fitted or top-dose-only effect; inactive = no such curve, though single readings can be large or run the other way; note: potency is the fitted concentration of half-maximal effect; the source files actives as falling curves though it sought activators and does not explain the sign; nearly all actives have a fitted effect of over 65% in size; many hits overshoot -100%
Target sequence (P80244 whole entry, looked up): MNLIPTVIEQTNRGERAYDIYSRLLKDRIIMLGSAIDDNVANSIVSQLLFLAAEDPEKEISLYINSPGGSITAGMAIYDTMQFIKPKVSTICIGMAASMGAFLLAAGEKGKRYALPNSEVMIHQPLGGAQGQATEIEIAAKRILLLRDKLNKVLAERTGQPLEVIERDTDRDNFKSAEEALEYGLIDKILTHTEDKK
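ClpP 10 microg/mL final, pH 8 Tris/KCl buffer with BSA, glycerol, Tween-20; compound pinned in; FRET-FV substrate; RT 20 min; Ex320/Em430; ΔFRET vs ADEP 5.8 microM, DMSO, no enzyme.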
D2 potentiator: potentiates the human D2 dopamine receptor allosterically; P14416; DiscoveRx D2 beta-arrestin cells, luminescence, 90 min; 100% = 57 uM dopamine signal; potentiation, % (no concentration beside the values); hit rate 0.23% among 360,000; AID 624464; active = potentiation of 50% or more; inconclusive = 30% to 50%; inactive = 30% or less;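 note: compound concentration not given in the record; tested on top of an EC20 dose of dopamine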
Target sequence (P14416 whole entry, looked up): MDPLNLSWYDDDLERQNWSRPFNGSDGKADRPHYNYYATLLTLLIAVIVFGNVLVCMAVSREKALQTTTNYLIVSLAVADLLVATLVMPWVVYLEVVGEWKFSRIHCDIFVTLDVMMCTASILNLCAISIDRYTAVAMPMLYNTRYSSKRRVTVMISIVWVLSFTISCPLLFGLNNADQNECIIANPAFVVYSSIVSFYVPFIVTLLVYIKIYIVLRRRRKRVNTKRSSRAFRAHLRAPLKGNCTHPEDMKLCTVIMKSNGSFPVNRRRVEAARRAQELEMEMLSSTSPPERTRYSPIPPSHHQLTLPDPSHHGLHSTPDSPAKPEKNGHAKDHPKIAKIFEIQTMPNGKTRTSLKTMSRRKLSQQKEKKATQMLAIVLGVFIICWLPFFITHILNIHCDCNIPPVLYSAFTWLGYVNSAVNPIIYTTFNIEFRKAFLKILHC
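D2 cells co-treated with compound plus 50 nM dopamine (EC20) for 90 min at 37 deg C to detect potentiation. Beta-arrestin recruitment was read as enzyme-fragment luminescence after 1 h at ambient temperature. Full response was set by 57 uM dopamine.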
Sfp inh: inhibitors of Bacillus subtilis Sfp phosphopantetheinyl transferase. Q9F4F7. Biochemical Sfp PPTase activity, qHTS. Potency, µM, without a hit: max response, negative = inhibition, actives largely listed as inhibitors. hit rate 3.5% among 310,000. AID 1490; active = well fitted inhibition curve with a large enough effect; inconclusive = small, poorly fitted or top-dose-only effect, or another doubt; inactive = no such curve, though single readings can be large or run the other way;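 note: the enzyme is Sfp with the accession as filed and its product quenches rhodamine fluorescence; potency is the fitted concentration of half-maximal effect; 0% = enzyme reaction without inhibitor and -100% = no enzyme wells; top concentration of the series not given in the record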
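Sfp 15 nM + cpd, 15 min RT; start w/ rhodamine-CoA 5 uM, BHQ-2-YbbR 12.5 uM (final); 50 mM Hepes pH 7.6, 10 mM MgCl2, 0.01% NP-40, 0.01% BSA; read 525/598 nm at 0 and 30 min.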
Menin MLL FP FL: displaces fluorescein MLL peptide from human menin; Fluorescence polarization, fluorescein-MLL peptide displacement from menin; FP activity change, % at 61.4 µM; 290,000 tested, under 10 active; AID 1766; inconclusive = falling polarisation curve, or a change in total fluorescence; inactive = total fluorescence flat and polarisation flat or rising; no compound was filed as active; the % refers to the polarisation; negative = inhibition;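 note: % of control where 0% means no effect; inhibitors lower the polarisation; unlabelled MLL peptide was the positive control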
TRPV1 PAM: human TRPV1 potentiation | Q8NER1 | TRPV1-expressing cells, Fluo-8 calcium influx, capsaicin EC20 potentiation; host cell line not named in the record; control for the full effect not named in the record | potentiation, % at 8.33 µM | hit rate 0.02% among 320,000; active means potentiation above 80%; inconclusive means 30% to 80%; inactive means below 30%; note: 0% is about no effect
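Fluo-8 calcium influx in TRPV1-expressing cells, kinetic read (ex 480/em 520 nm). Compound added and read 3 min for agonist activity, followed by capsaicin at EC20 final and 2 min further read for enhancement.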
* hit, by the source's call; u = inconclusive; x = not tested or not shown; [ ] = dose if it differs, or a comment.

canonical_smiles	D2 potentiator	ClpP mod	Sfp inh	gsp agonist	Menin MLL FP FL	gsp antag	TRPV1 PAM
COc1cccc(NC(=O)c2cc(-c3cccnc3)nc3c(Cl)cccc23)c1	24	56%	1%	11%	14	-4%	-5
CC(C)C(NS(=O)(=O)c1ccccc1F)C(=O)OCC(=O)NCc1ccco1 (stereo not given)	-19	2.3%	x	-39%[inhibitor]	x	2%	8
O=C(CCCN=C1NS(=O)(=O)c2ccccc21)OCc1ccccc1	-13	-0.7%	x	0%[15.4 µM]	x	3%	-34
COc1ccccc1NC(=O)Cn1nnc2sc3c(c2c1=O)CC(C)(C)OC3	-5	0.4%	11%	-30%[inhibitor]	1.1	-1%	25
CCOc1ccc(C(C)=O)cc1Cn1nc(C(=O)O)c2ccccc2c1=O	0	-7.8%	-8%	12%	2.3	-3%	19
CCN1CCN(CCC(=O)Nc2cc(OC)cc(OC)c2)CC1	-3	28µM*	21%	4%[15.4 µM]	-1.3	6%	0
CCN(CC)C(=S)Nc1c(C)n(C)n(-c2ccccc2)c1=O	-2	0.3%	1%	25%	-0.8	9%	1
O=C(CNc1cccc(F)c1)Nc1cccc(S(=O)(=O)N2CCCCC2)c1	-3	x	x	-6%[15.4 µM]	x	9%	u
C[C@H](O)[C@@H]1C(=O)N2CCc3ccc(-c4ccccc4)cc3[C@@H]2C[C@@H]1N(C)C(=O)NC1CCCCC1	-9	-2.7%	x	x	x	-12%	x
CN1C(=O)C(O)(C2CCCCCC2=O)c2ccccc21 (stereo not given)	-12	-4.7%	7%	-1%	3.1	-2%	4

A different layout for part of the listing above:
COc1cccc(NC(=O)c2cc(-c3cccnc3)nc3c(Cl)cccc23)c1
  D2 potentiator = 24
  ClpP mod = 56%
  Sfp inh = 1%
  gsp agonist = 11%
  Menin MLL FP FL = 14
  gsp antag = -4%
  TRPV1 PAM = -5

CC(C)C(NS(=O)(=O)c1ccccc1F)C(=O)OCC(=O)NCc1ccco1 (stereo not given)
  D2 potentiator = -19
  ClpP mod = 2.3%
  Sfp inh = x
  gsp agonist = -39%[inhibitor]
  Menin MLL FP FL = x
  gsp antag = 2%
  TRPV1 PAM = 8

O=C(CCCN=C1NS(=O)(=O)c2ccccc21)OCc1ccccc1
  D2 potentiator = -13
  ClpP mod = -0.7%
  Sfp inh = x
  gsp agonist = 0%[15.4 µM]
  Menin MLL FP FL = x
  gsp antag = 3%
  TRPV1 PAM = -34

Additional compounds follow.
canonical_smiles	D2 potentiator	ClpP mod	Sfp inh	gsp agonist	Menin MLL FP FL	gsp antag	TRPV1 PAM
COc1ccc(/C=C/C(=O)Nc2ccc(C34CC5CC(CC(O)(C5)C3)C4)cc2)cc1OC	-10	u	6%	-3%	2.2	-17%	0
COc1cc(/C=N/NC(=O)c2ccc(CN3c4cccc5cccc(c45)S3(=O)=O)cc2)cc(OC)c1O	0	x	20%	-2%[15.4 µM]	0.1	-1%	-1
COc1cccc(/C=C2\SC(=S)N(CCC(=O)N3CCCCC3CCO)C2=O)c1 (stereo not given)	-2	-3.5%	-26%	-2%	1.1	-22%	5
Cc1cccc(N2CC(C(=O)Nc3ccccc3N3CCCC3)CC2=O)c1C (stereo not given)	11	-0.4%	x	-22%	x	-4%	-11
COc1ccccc1N(CC(=O)NCc1ccc2c(c1)OCO2)C(=O)CCC(=O)Nc1nccs1	-33	-1.3%	-3%	-20%[15.4 µM]	-2.0	-3%	22
O=S(=O)(c1ccc2ccccc2c1)N(CC(O)CN1CCOCC1)c1ccccc1 (stereo not given)	2	-2.0%	6%	5%	-5.9	7%	1
COc1ccc(NC(C)C(=O)N/N=C/c2ccccc2OCc2ccc(Br)cc2)cc1 (stereo not given)	-24	-0.4%	-4%	-1%	31[activator]	0%	-7
COc1cccc(C(=O)Nc2ccccc2NC(=O)c2cccc(OC)c2)c1	-3	-1.5%	-1%	-34%[15.4 µM]	-2.6	-8%	8
COc1ccccc1C(CNC(=O)c1cccc(S(=O)(=O)N2c3ccccc3CC2C)c1)N(C)C (stereo not given)	-6	0.8%	x	-12%	x	-7%	x
Cc1[nH]nc2c1C(c1ccsc1)C1=C(CC(C)(C)CC1=O)N2 (stereo not given)	-14	x	3%	4%	-0.1	-17%	2

No new results follow: entries from further up.
canonical_smiles	D2 potentiator	ClpP mod	Sfp inh	gsp agonist	Menin MLL FP FL	gsp antag	TRPV1 PAM
COc1cccc(/C=C2\SC(=S)N(CCC(=O)N3CCCCC3CCO)C2=O)c1 (stereo not given)	-2	-3.5%	-26%	-2%	1.1	-22%	5
Cc1cccc(N2CC(C(=O)Nc3ccccc3N3CCCC3)CC2=O)c1C (stereo not given)	11	-0.4%	x	-22%	x	-4%	-11

Next part:
canonical_smiles	D2 potentiator	ClpP mod	Sfp inh	gsp agonist	Menin MLL FP FL	gsp antag	TRPV1 PAM
OCCOCCn1c(C(CO)Nc2nc(-c3ccc(Cl)cc3)cs2)nc2ccccc21 (stereo not given)	-8	-3.8%	x	x	x	-7%	x
O=C(NCCN1CCOCC1)c1ccc2ccccc2c1	-42	-6.2%	12%	-34%[inhibitor]	-0.3	-1%	-8
Cc1cc(C)n(-c2ccc(C(=O)N3CC(C)OC(C)C3)cc2)n1 (stereo not given)	-4	-3.2%	23%	-59%[inhibitor]	-0.9	7%	-2
COc1cc(OC)cc(-c2c(-c3ccc(F)cc3)c3cc(-c4ccc5cc[nH]c5c4)ccc3n2C)c1	-1	3.3%	x	-2%	x	-2%	12
CC[C@@H](Nc1ncnc2c1oc1ccccc12)C(=O)O	-8	-1.5%	6%	u	6.1	2%	-10
COc1ccccc1NC(=O)CSc1nnc(COc2ccccc2C)o1	-6	x	-3%	19%	x	-5%	-3
Cc1ccc(C(C)NC(=O)C2CCCC2)cc1C (stereo not given)	19	-0.6%	6%	11%	-0.7	1%	-5
O=C(Nc1ccn(Cc2ccccc2)n1)c1ccc(F)cc1	-1	0.4%	18%	-4%	1.3	1%	-3
CC1CN(C(=O)COC(=O)c2cc(=O)c3ccccc3o2)CC(C)O1 (stereo not given)	-3	x	9%	-1%[15.4 µM]	-3.8	-29%	u
Cc1c(N(C)S(=O)(=O)c2ccc(Cl)c(C(=O)NCC(C)(C)N3CCOCC3)c2)c(=O)n(-c2ccccc2)n1C	-1	1.5%	x	-5%	x	8%	x
O=c1cnnc(Nc2ccc(F)cc2)[nH]1	-1	x	9%	2%	1.8	2%	6
O=[N+]([O-])c1ccc(F)cc1Oc1nc(-c2cccnc2)nc2ccccc12	-6	x	0%	6%[15.4 µM]	1.9	u	-10
O=C(c1ccc(S(=O)(=O)NCc2ccco2)cc1)N1CCN(c2ccccc2)CC1	-4	x	x	4%	x	-4%	x
CCN(CC)Cc1c(C(=O)N/N=C/c2ccncc2)nnn1-c1nonc1N	0	x	22%	u	2.6	2%	4
CC(C)Cc1cc(CN2CCC(CO)(Cc3cccc(C(F)(F)F)c3)CC2)[nH]n1	-30	2.7%	-13%	-38%[inhibitor]	1.6	8%	-5
CCC(C)NC(=O)c1c(-c2cc(Cl)c(OC)c(Cl)c2)noc1C (stereo not given)	-3	1.5%	12%	8%	0.9	-9%	-9
O=C(Nc1ccc2c(c1)CCC2)C1COc2ccccc2O1 (stereo not given)	-15	-0.6%	u	-1%	1.3	-7%	3
O=C(CN1C(=O)c2cccnc2C1=O)c1ccccc1	-3	-0.3%	-1%	32%	2.2	-5%	29
Cc1ccc(-c2[nH]nc3c2C(c2ccc(OC(=O)N4CCOCC4)cc2)C(C#N)=C(N)O3)cc1 (stereo not given)	-15	-0.7%	7%	3%	4.8	-13%	u
C/C(=N\Nc1cc(C)nc(-c2ccccc2)n1)c1cccc([N+](=O)[O-])c1	-5	-2.0%	13%	-2%	-1.5	-1%	-5
CC(=O)N1CCc2cc(C(=O)CN3CCN(c4cccc(Cl)c4)CC3)ccc21	-13	-5.3%	-26%	-58%[inhibitor]	6.0	0%	x
COc1ccc(S(=O)(=O)NCCN2CCOCC2)c2ccccc12	-7	-3.4%	-8%	-8%	3.5	-9%	21
OC(CNC1Cc2ccccc2C1)COc1ccc(Cl)cc1 (stereo not given)	-8	-1.8%	6%	12%	5.9	7%	28
CC(=O)C1=C(c2ccccc2)N(C(C)=O)n2c(C)nnc2S1	-25	0.6%	-8%	0%	0.8	u	-3
CC1CCCCC1NC(=O)c1cn(C)c2ccc(S(=O)(=O)N3CCCC3)cc2c1=O (stereo not given)	-6	0.5%	-5%	2%	-0.5	-12%	-1
O=C1NC(=Nc2ccc(Cl)cc2)SC1Cc1cccc(Cl)c1Cl (stereo not given)	-18	-4.7%	21%	0%	8.4	-7%	2
Cc1ccccc1CS(=O)(=O)Cc1ccc(C(=O)N2CCOCC2)o1	3	-0.3%	14%	-4%	8.2	14%	14
CCCC(=O)Nc1ccc2c(c1)C(=O)N(CCC(=O)O)C2=O	2	28µM*	20%	33%	-0.7	5%	3
CSc1ccccc1OCc1cc(C(=O)NCCn2ccnc2C)no1	-11	-1.5%	10%	13%	-0.5	-6%	2
N=C1/C(=C/c2ccc(OCc3ccccc3)cc2)C(=O)N=C2SC(CC(=O)N3CCOCC3)=NN12	-7	x	-4%	1%	5.5	1%	0
CC(OC(=O)CN1C(=O)c2ccccc2C1=O)C(=O)N(C)c1ccccc1 (stereo not given)	-13	x	x	29%[15.4 µM]	x	-4%	6
O=C1CCCc2cc3c(cc21)CCCC3	-10	x	x	19%	x	1%	x
CN(CC(=O)NCC1CCCO1)S(=O)(=O)c1ccc(Br)cc1 (stereo not given)	-21	1.2%	3%	-54%[inhibitor]	1.7	10%	-4
O=C(NCCNC(=O)c1ccccn1)c1ccc(-c2ccccc2)cc1	0	x	15%	16%	0.9	-6%	-2
